# Source: PubChem BioAssay (several laboratories)
# BJeLR viability: BJeLR cell viability loss; inhibition, % (concentration not given with the values); BJeLR (HRASV12) viability, CellTiter-Glo ATP luminescence, 48 h; reference of the scale not given here; actives 0.17% (n = 300,000);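 active means replicate mean above 50%; inconclusive means above 50% but judged a plate artefact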;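 further: 50 nL library stock added to about 25 µL; numbers are from one replicate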
# PrP UTR inh: inhibition of PrP 5' UTR reporter expression; inhibition, % (test concentration not listed); AID 488862; cell-based PrP 5' UTR mRNA reporter, plate reader; actives 0.35% (n = 340,000);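 active means every replicate at 50% or more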;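 further: 0 = median of the neutral control wells; tested in H4 reporter cells; numbers are from one replicate; inactives centre near -14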
# RN4220 kill: S. aureus RN4220 growth inhibition; actives 0.33% (n = 330,000); OD600, 16 h; AID 1259311; inhibition, % (test concentration not listed);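 active means z-score of -3 or lower and OD600 up to 0.18 on both plates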;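 further: plate controls were untreated cells for no effect and reference antibiotic for full effect; stock transfer was 100 nL into about 80 µL; one replicate is shown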
# Bead autofluor: counter-screen for toxin protease inhibitors: compound fluorescence; compound autofluorescence counterscreen, microsphere flow cytometry; stronger effect = higher value; fluorescence intensity (no concentration beside the values); actives 3.1% (n = 360,000);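 active means at least 3 SD above the mean of all compounds, about 16000 in these data; inconclusive means too few beads counted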;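 further: 100 nL of 1 mM stock went into each well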
# ugtP null kill: compounds lethal to S. aureus RN4220 ugtP deletion mutant. OD600 growth, 16 h; some inactives read as strong as hits. growth inhibition, % (no concentration beside the values). actives 0.54% (n = 330,000). AID 1259309;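 active means z-score under -3 and OD600 up to 0.15 on both plates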;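 further: plate controls were untreated wells for no effect and antibiotic for full effect; wells of about 80 µL received 100 nL stock; the first replicate is given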
# Mtb hypoxia rep: inhibitors of hypoxia-regulated fluorescent reporter in Mycobacterium tuberculosis; M. tuberculosis hypoxia-regulated fluorescent reporter, fluorescence; fluorescence inhibition, % (test concentration not listed); actives 0.1% (n = 300,000); AID 1159583;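 active means 35 to 45% if threefold the growth effect, above 45% if 1.5-fold the growth effect; inactive means the rest, general growth blockers included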;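 further: wells of about 50 µL received 100 nL stock; 0% = vehicle wells and 100% = reference inhibitor wells; whole bacteria with a GFP reporter of the hypoxia response; strong numbers were not always called active; many hits fall short of the cut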
# Mtb hypoxia rep growth: recorded beside Mtb hypoxia rep, whose call it bears; growth inhibition, %; measured here: M. tuberculosis growth (absorbance);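 0% = vehicle and 100% = reference antibiotic; read after six days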
# The depositor's hits bear a star; u = inconclusive; x = not tested or not shown.
SMILES,BJeLR viability,PrP UTR inh,RN4220 kill,Bead autofluor,ugtP null kill,Mtb hypoxia rep,Mtb hypoxia rep growth
O=C1CSc2ccc(S(=O)(=O)N3CCN(c4ccccc4F)CC3)cc2N1,9,-17,-2.3,5377,-6,-5,-2
CN(C(=O)COC(=O)c1ccc2c(=O)n3c(nc2c1)CCC3)c1ccccc1,7,-12,4.9,2545,9,11,9
CN(CC(=O)Nc1ccc(F)c(F)c1F)c1ncnc2sccc12,5,-12,5.3,4460,3,3,-3
CCn1c(CCC(=O)Nc2ccccc2F)nnc1SCC(=O)Nc1ccc(OC)cc1,-11,-12,1.6,5485,4,-7,6
COc1ccc(OC)c(-c2cc(C(=O)Nc3sc4c(c3C#N)CCC(C)C4)c3ccccc3n2)c1 (configuration not stated),-3,-7,6.7,u,5,7,7
C=CCN(c1ccccc1)S(=O)(=O)c1cccc(C(=O)Nc2ccncc2)c1,4,-19,1.6,5860,-1,-14,-13
Cc1cccc(N2CCN(C(=O)CCC(=O)N3CC(C)Oc4ccccc43)CC2)c1C (configuration not stated),2,-21,-10,5172,-7,6,10
O=C(Oc1ccc(-c2csnn2)cc1)c1cccs1,3,2,9.1,4268,2,15,3
C[C@H](NC(=O)[C@@H]1Cc2ccccc2CN1C(=O)OC(C)(C)C)C(=O)NC1CCCC1,2,-18,-3.3,5016,11,3,1
CCOC(=O)COc1c(OC)cc(Cl)cc1C1Nc2ccccc2C(=O)N1c1cccc(C)c1 (configuration not stated),0,-14,-3.1,11061,-1,8,3
S=C(NCCCN1CCOCC1)Nc1ccc(Cl)cc1,9,-19,1.1,2165,2,4,1
O=C1c2ccccc2C(=O)N1CCC#Cc1ccc2cc(CCO)oc(=O)c2c1,x,6,4.0,3749,4,0,-1
O=C(Nc1ccc2c(c1)Cc1ccccc1-2)c1ccncc1,4,-72,-16,2522,-3,2,-4
Cc1ccc(Cc2c(C)nc3nc(SCC(=O)NCCN4CCOCC4)nn3c2C)cc1,3,4,2.3,7030,13,9,-7
Clc1ccc(CON=C2CCCc3nonc32)cc1,x,x,10,x,6,-1,4
O=C(Oc1ccc([N+](=O)[O-])cc1)c1cccnc1,-5,1,x,2095,x,x,x
CC1(C)C2CCC1(CS(=O)(=O)Nc1ccc(S(=O)(=O)NC3CCCCC3)cc1)C(=O)C2 (configuration not stated),-5,-19,4.0,2637,1,1,8
COc1ccc(OC)c(CNC(=O)CCC(=O)N2Cc3ccccc3Oc3ncccc32)c1,1,2,3.9,6059,9,14,2
COC(=O)C(O)(c1ccc(NC(=O)c2ccccc2)cc1)C(F)(F)F (configuration not stated),6,-28,4.5,6324,-1,7,-2
CCC(=O)Nc1nnc(SCC(=O)N2c3ccccc3CC2C)s1 (configuration not stated),-4,-18,-1.7,8963,7,-6,-1
Cc1cc(C)cc(-n2nnnc2SCC(=O)Nc2nc(-c3ccc(Cl)cc3)cs2)c1,-21,-8,0.8,9416,21,-8,5
CC(C)NS(=O)(=O)c1ccc(CCC(=O)NCc2ccncc2)cc1,-3,0,1.2,4375,0,0,-5
CCSc1nnc(NC(=O)CCNS(=O)(=O)c2cc(Br)cnc2N)s1,-3,-23,4.1,9378,-3,14,12
CCOc1ccc(C(=O)NCC2CCCO2)cc1OCC (configuration not stated),6,-9,0.1,4729,4,7,3
CC(C)C1Cc2nc(Cl)c(C#N)cc2CO1 (configuration not stated),-1,-2,5.6,4960,3,1,-5
Cc1ccsc1C=c1sc2ncnn2c1=O,x,x,3.4,x,7,-2,0
O=C(Nc1cccc(S(=O)(=O)NC2=NCCC2)c1)c1ccccc1,x,1,-2.9,4652,-5,-5,-2
O=C(Cc1c(F)cccc1Cl)NNC(=O)c1ccco1,x,-12,0.0,3495,3,3,-6
O=C(Nc1ccc(-n2cccn2)cc1)C1CCN(Cc2ccccn2)CC1,-8,-11,-0.2,4555,8,8,15
CCOC(=O)/C(=N/Nc1ccc(C)cc1)S(=O)(=O)c1ccc(Cl)cc1,1,-41,x,4293,x,x,x
CCN1CCN(Cc2cc(=O)oc3cc4c(cc23)CCC4)CC1,6,-19,3.2,4373,-15,20,12
Cc1ccc(NS(=O)(=O)c2cccc(C(=O)Nc3c(C)n(C)n(-c4ccccc4)c3=O)c2)cc1,-3,x,15,x,-1,12,-6
COc1ccc(CC2=CC(=O)c3ccccc3C2=O)cc1,23,-19,23,3056,8,13,10
Cc1nn(C)c(C)c1S(=O)(=O)N1CCC(C(=O)NC2CCCCCC2)CC1,1,5,0.6,6170,-4,x,x
Cc1ccc(S(=O)(=O)NC(=O)Nc2cccc([N+](=O)[O-])c2)cc1,8,-13,4.5,5911,-6,18,5
Cc1ccc(S(=O)(=O)N2CCCCC2)cc1NC(=O)CSc1ncnc2ccccc12,-4,-44,-1.8,11142,-6,-6,2
O=C(Cn1cnc2sc3c(c2c1=O)CCCC3)NCCC(=O)N1CCC2(CC1)OCCO2,-3,-14,6.0,15256,12,11,1
COCCN(CCOC)c1ncc(Cl)c(C(=O)c2c(C)cc3ccccn23)n1,-2,-8,4.4,8735,10,18,7
CCN1CCN(c2cc(C)c3cc(NC(=O)c4cncc(Br)c4)ccc3n2)CC1,-1,0,x,3711,x,x,x
O=C(NN=Cc1ccc(Sc2nc3ccccc3[nH]2)o1)c1ccncc1,x,x,2.3,x,4,x,x
COc1cc(/C=C(/C#N)C(=O)c2c(C)[nH]c3ccccc23)ccc1OCC#N,1,-7,x,3667,x,x,x
c1ccc2c(N3CCCCC3)ncnc2c1,-1,-6,2.2,4588,3,15,16
Cc1nnc(SCC(=O)Nc2nccs2)n(N)c1=O,38,-14,2.3,3957,0,2,-6
O=C1NC(=S)SC1=Cc1ccc(Cl)cc1,x,-18,95*,3589,99*,-3,1
COc1cc(CCC(=O)Nc2c(C(=O)N3CCN(c4ccccc4OC)CC3)oc3ccccc23)on1,-5,-9,5.1,6033,1,11,2
CCOc1cccc(-c2nnc3sc(COc4ccc(OC)cc4)nn23)c1,11,-11,7.5,4740,-4,6,-3
COCCNC(=O)CN(CC1CCCO1)C(=O)CCC(=O)Nc1ccccn1 (configuration not stated),-8,-13,2.1,3079,-1,x,x
CC(=O)NNC(=O)CN1C(=O)/C(=C/c2ccccc2)SC1=S,-3,-23,0.6,4038,-2,11,-6
Cc1nc2ccccc2c2ncccc12,-10,-16,2.7,3395,13,7,12
COc1ccc(Nc2nc(OC)nc(OC)n2)cc1,-1,-20,5.0,4239,12,4,-2
CCOC(=O)c1c(C#N)c(SCC(=O)Nc2ccc(OC)cc2)nc2c1CN(CC)CC2,-5,-23,-3.1,13086,-8,-5,12
O=C(O)c1ccccc1NS(=O)(=O)c1cccc(C(F)(F)F)c1,3,-13,0.9,11229,0,11,-2
COc1ccc(CNC(=O)CSc2nnnn2-c2ccccc2)cc1,9,-15,5.5,8198,3,10,10
COc1ccc(CCNC(=O)c2nnn(-c3ccc4c(c3)OCCO4)c2N)cc1OC,-9,42,3.0,8629,3,0,5
COCCNC(=O)N1C2CCC1C(C(=O)OC)=C(c1cccc(C#N)c1)C2 (configuration not stated),x,x,1.6,x,8,5,9
COc1ccccc1C=NNC(=O)CNC(=O)c1ccc(S(=O)(=O)N2CCCC2)cc1,x,x,-0.9,x,3,-17,2
CC(=O)Nc1ccc(S(=O)(=O)Nc2ccc3ccccc3n2)cc1,-2,30,0.0,5604,5,10,1
COCCNC(=O)C(=O)NCCN1CCNCC1,16,-16,5.3,4389,3,0,9
CCOC(=O)C1=C(N)N(c2ccccc2Oc2ccccc2)C(=O)C1,3,1,-3.0,4481,5,x,x
O=C(Nc1ccc(F)cc1F)c1csc(-c2ccncc2)n1,-1,-8,6.3,2506,7,6,13
# Next part
SMILES,BJeLR viability,PrP UTR inh,RN4220 kill,Bead autofluor,ugtP null kill,Mtb hypoxia rep,Mtb hypoxia rep growth
CCOC(=O)c1c(-c2ccc(C)o2)csc1NC(=S)NC(=O)c1ccccc1Br,-2,4,-9.9,16268*,62,7,5
CC(=O)Nc1ccc(NC(=O)CSc2ccc(C(F)(F)F)cc2[N+](=O)[O-])cc1,-6,-13,1.7,2090,-2,-4,0
CCCOn1nnnc1-c1ccccc1,4,7,-15,3300,-5,10,9
CCOc1[nH]n(-c2ccccc2)c(=O)c1C=Nc1ccc(Cl)cc1,1,-1,-1.4,3685,2,3,0
CCc1ccc(NS(=O)(=O)c2ccc3c(c2)CCN3C(=O)CCC(=O)O)cc1,-3,6,1.5,3012,11,-8,-12
COc1cc([N+](=O)[O-])ccc1NC(=O)CC(C)C,10,-17,9.1,9479,0,2,3
CCc1cc(C(=O)N2CCc3c([nH]c4ccccc34)C2c2ccc(OC)cc2F)no1 (configuration not stated),37,-20,0.0,5416,13,12,1
CC(=O)Nc1ccc(S(=O)(=O)N2CCN(Cc3ccccc3[N+](=O)[O-])CC2)cc1,16,-23,4.6,2328,0,1,5
C=CCSc1nc(N)c2c(C)c(C)sc2n1,-8,-49,15,10410,-2,9,12
Cc1cccc(Nc2nc3c(c(=O)n(C)c(=O)n3C)n2Cc2ccccc2)c1,5,-3,-15,3036,-2,-3,1
N#Cc1ccccc1S(=O)(=O)N1CCN(CC(O)CN2CCOCC2)CC1 (configuration not stated),x,x,1.0,4788,0,10,5
COc1ccc(OC)c(C(=O)c2coc3ccc(OC(C)=O)cc23)c1,-17,-4,7.0,1919,2,5,-1
Cc1ccc(OCCNCc2ccccc2)c(C)c1,0,-59,-2.7,4024,9,4,12
CC(C)(C)OC(=O)N[C@H]1C=C[C@H](OC(=O)CC(=O)OCC(F)(F)F)C1,x,-13,3.0,3865,10,3,1
O=C(CSc1nnnn1-c1ccc2c(c1)OCO2)NCc1cccs1,1,-14,1.9,3807,3,x,x
Cc1cc(C)cc(NC(=O)c2ccc3nc[nH]c3c2)c1,3,-3,-1.6,2559,4,2,6
COc1cccc(C=NNc2ccc(S(=O)(=O)Nc3ccccc3C(=O)O)cc2[N+](=O)[O-])c1O,x,x,-5.1,x,23,22,12
COc1cccc(NC(=O)CSc2nc(=O)n(Cc3ccncc3)c3c2CCCC3)c1,12,-10,0.7,6564,3,-3,0
CC1=NNC(=O)/C1=C\c1cn(-c2ccccc2)nc1-c1ccc(F)cc1,4,-25,-11,3347,-4,10,2
O=C(NCCc1ccccc1)C1CCN(S(=O)(=O)c2ccc(Br)s2)CC1,-3,-6,2.2,7352,7,7,7

# Limited to BJeLR viability and Bead autofluor, for six of the compounds above:
SMILES,BJeLR viability,Bead autofluor
COc1cc([N+](=O)[O-])ccc1NC(=O)CC(C)C,10,9479
O=C(CSc1nnnn1-c1ccc2c(c1)OCO2)NCc1cccs1,1,3807
CC1=NNC(=O)/C1=C\c1cn(-c2ccccc2)nc1-c1ccc(F)cc1,4,3347
CCc1cc(C(=O)N2CCc3c([nH]c4ccccc34)C2c2ccc(OC)cc2F)no1 (configuration not stated),37,5416
CCOc1[nH]n(-c2ccccc2)c(=O)c1C=Nc1ccc(Cl)cc1,1,3685
Cc1ccc(OCCNCc2ccccc2)c(C)c1,0,4024

# (continued)
SMILES,BJeLR viability,PrP UTR inh,RN4220 kill,Bead autofluor,ugtP null kill,Mtb hypoxia rep,Mtb hypoxia rep growth
CC(C)(C)NC(=O)C1CCC(CNc2c(N3CCCCC3)c(=O)c2=O)CC1 (configuration not stated),2,6,12,3360,4,1,-2
c1ccc(-c2csc3ncnc(NCC4COc5ccccc5O4)c23)cc1 (configuration not stated),5,-11,0.3,2347,-28,9,6
CC(C)(O)C#Cc1ccc(C(=O)Nc2ccc3c(c2)OCO3)s1,-4,-78,2.7,4226,-6,12,13
CCOC(=O)N1CCC(n2c(SCC(=O)NCCc3ccc(S(N)(=O)=O)cc3)nc3ccccc3c2=O)CC1,0,-31,7.8,4747,2,3,6
COc1ccc(NC(=O)COC(=O)c2cnccn2)cc1Cl,1,-22,-2.8,x,-1,x,x

# Exported with two lines to a compound: 4 of the compounds above
# Fields: BJeLR viability	PrP UTR inh	RN4220 kill	Bead autofluor	ugtP null kill	Mtb hypoxia rep	Mtb hypoxia rep growth
> c1ccc(-c2csc3ncnc(NCC4COc5ccccc5O4)c23)cc1 (configuration not stated)
  5	-11	0.3	2347	-28	9	6
> CC(C)(O)C#Cc1ccc(C(=O)Nc2ccc3c(c2)OCO3)s1
  -4	-78	2.7	4226	-6	12	13
> CCOC(=O)N1CCC(n2c(SCC(=O)NCCc3ccc(S(N)(=O)=O)cc3)nc3ccccc3c2=O)CC1
  0	-31	7.8	4747	2	3	6
> COc1ccc(NC(=O)COC(=O)c2cnccn2)cc1Cl
  1	-22	-2.8	x	-1	x	x
